Screens from PubChem.
Anaer choline gr: growth inhibitors of anaerobic choline-fed gram-negatives, minimal medium, absorbance; Gram-negative bacterium anaerobic choline minimal medium; active compounds read low; many inactives read as strong as hits in the columns shown; calls only; actives 0.2% (n = 55,000);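 active = growth z-score on choline under -2 at 7 or 20 h with little or no fall on glycerol, limits in tiers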;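 note: stock transfer was 300 nL into about 50 µL; the organism is E. coli; final concentration not given here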
Anaer choline gr early: second read-out of Anaer choline gr, no call of its own (marks repeat the call); z-score; measured here: choline growth z-score, timepoint 1;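 score of optical density at 7 h as mean of two plates; lower means less growth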
* = called active by the depositor; & = joins results of further samples.

COCCNC(=O)Cn1nc(N2CCN(c3ccccc3)CC2)ccc1=O was read as Anaer choline gr inactive and Anaer choline gr early -0.47.
For CCC(=O)Nc1nnc(Cc2nc3ccccc3n2C)o1 the results were Anaer choline gr inactive and Anaer choline gr early -1.01.
For Cc1cc(NC2CCCCC2)n2ncc(-c3ccc(F)cc3)c2n1 the results were Anaer choline gr inactive and Anaer choline gr early -0.64.
Screening COc1ccc(OC)c(S(=O)(=O)N2CCCC2c2c(C)noc2C)c1 (stereo not given) returned Anaer choline gr inactive and Anaer choline gr early 0.36.
O=c1n(Cc2ccc(F)cc2Cl)nc2c(S(=O)(=O)N3CCCC3)cccn12 was read as Anaer choline gr inactive and Anaer choline gr early 0.84.
Screening CCCn1c(=O)[nH]c2cc(-c3noc(C4CC4)n3)ccc21 returned Anaer choline gr inactive and Anaer choline gr early 0.59.
`CC(C)CCNC(=O)C1CCN(c2ccc(Cl)cc2)C1=O` (stereo not given) gave Anaer choline gr inactive and Anaer choline gr early 0.05.
For CC(C)CCNC(=O)C1CCCN(C(=O)c2ccc(NC(=O)C(C)(C)C)cc2)C1 (stereo not given) the results were Anaer choline gr inactive and Anaer choline gr early -0.95.
For CC1CCCN(c2ccc(NC(=O)C3CC3)c(C(=O)O)c2)C1 (stereo not given) the results were Anaer choline gr inactive and Anaer choline gr early -0.23.
Screening c1cc(CNc2ncnc3sc4c(c23)CCCC4)ccn1 returned Anaer choline gr inactive and Anaer choline gr early -1.15.
For C=CCNC(=O)c1ccc2c(c1)NC(=O)CN2 the results were Anaer choline gr inactive and Anaer choline gr early -0.84.
O=C(CSC1=Nc2ccccc2N=C(c2ccccn2)C1)Nc1ccc2c(c1)CCC2 was read as Anaer choline gr inactive and Anaer choline gr early 0.46.
`CCS(=O)(=O)N1CCCN(C(=O)C(C)(C)C)CC1` gave Anaer choline gr inactive and Anaer choline gr early -0.2.
COC(=O)c1ccc(COC(=O)c2ccc(N3C(=O)c4c(C)nc5ccccc5c4C3=O)cc2)cc1 was read as Anaer choline gr inactive and Anaer choline gr early -2.38.
Screening Fc1ccc(CNc2nc3ccccc3c3nc(-c4ccccc4)nn23)cc1 returned Anaer choline gr inactive and Anaer choline gr early 1.08.
For COc1ccccc1NC(=O)Nc1nc(CC(=O)N2c3ccccc3CC2C)cs1 (stereo not given) the results were Anaer choline gr inactive and Anaer choline gr early 1.66.
Screening O=C(Nc1ccc(-c2nc3ccccc3s2)cc1)C1COc2ccccc2O1 (stereo not given) returned Anaer choline gr inactive and Anaer choline gr early 0.54.
`COc1ccc(-c2cnc(C)o2)cc1S(=O)(=O)Nc1ccc(S(N)(=O)=O)cc1` gave Anaer choline gr inactive and Anaer choline gr early -0.32.
`c1ccc2nc(C3=NCCN3)ccc2c1` gave Anaer choline gr inactive and Anaer choline gr early 0.24&0.55.
`CCOc1ccc(C2Nc3ccc(Cl)cc3[C@H]3OCCC[C@@H]23)cc1OCC` (stereo not given in full) gave Anaer choline gr inactive and Anaer choline gr early 0.06.
Screening COC(=O)CSc1nc2sc3c(c2c(=O)n1CCc1ccccc1)CCCC3 returned Anaer choline gr inactive and Anaer choline gr early -1.29.
CCc1ccc2c(c1)[C@H]1OCC[C@H]1C(c1cc(I)c(OC)c(OC)c1)N2 (stereo not given in full) was read as Anaer choline gr inactive and Anaer choline gr early 1.83.
`CC1CCN(C(=O)Cn2c3c(c(=O)n4ncnc24)CCC3)CC1` gave Anaer choline gr inactive and Anaer choline gr early -1.22.
`COc1ccc(C2N(c3ccc(C(C)C)cc3)C(=O)N3CCCN23)cc1` (stereo not given) gave Anaer choline gr inactive and Anaer choline gr early 1.33.
`Clc1ccc(-c2nc3cnccn3c2Nc2ccc3c(c2)OCO3)cc1` gave Anaer choline gr inactive and Anaer choline gr early -0.06.
`O=C(c1ccccc1)N1CCN(c2nc3cc(Br)ccc3n3cccc23)CC1` gave Anaer choline gr inactive and Anaer choline gr early 1.03.
Screening O=S(=O)(c1ccc(Cl)cc1)c1nc(-c2ccccc2)oc1N1CCCC1 returned Anaer choline gr inactive and Anaer choline gr early -0.06.
`Cc1cccc(CNC2=NCCNC23CCN(S(=O)(=O)c2cc(C)ccc2C)CC3)c1` gave Anaer choline gr inactive and Anaer choline gr early -1.06.
c1cc(-c2noc(-c3cc4ccccc4[nH]3)n2)cc(-c2ccn[nH]2)c1 was read as Anaer choline gr inactive and Anaer choline gr early -0.69.
Screening O=C(O)CN1C(=O)COc2ccccc21 returned Anaer choline gr inactive and Anaer choline gr early -0.16.
Screening Cc1ccc(Cc2nnc(-c3ccc(N)cc3Cl)o2)cc1 returned Anaer choline gr inactive and Anaer choline gr early 0.63.
`Cc1ccc(C)c(N2CCN(c3ccc(S(=O)(=O)C(C)(C)C)nn3)CC2)c1` gave Anaer choline gr inactive and Anaer choline gr early 1.56.
Screening Cc1ccccc1/C=C/C1=NCCN1 returned Anaer choline gr inactive and Anaer choline gr early 0.51.
For O=c1c2sccc2n2c(=O)[nH]nc2n1Cc1ccco1 the results were Anaer choline gr inactive and Anaer choline gr early -1.57.
`CCN1CCCC1CNC(=O)C1CCN(c2nnc(C)c3c(C)n(-c4ccccc4)nc23)CC1` (stereo not given) gave Anaer choline gr inactive and Anaer choline gr early -0.93.
CCOCCOC(=O)c1ccc2c(c1)N(CC(=O)Nc1ccccc1F)C(=O)c1ccccc1S2 was read as Anaer choline gr inactive and Anaer choline gr early 0.61.
`COc1ccc(CCN=C(N)Nc2nc(C)cc(C)n2)cc1OC` gave Anaer choline gr inactive and Anaer choline gr early 0.26.
Screening CCSc1nnc(-c2nn(C)c3c2CN(S(=O)(=O)c2ccc(F)c(C)c2)CC3)n1CC returned Anaer choline gr inactive and Anaer choline gr early 0.67.
For COc1cccc(Nc2c(C)c(C)nc3ncnn23)c1 the results were Anaer choline gr inactive and Anaer choline gr early -1.19.
Screening O=S(=O)(Cc1ccccc1)N1CCCC1c1cccc(F)c1 (stereo not given) returned Anaer choline gr inactive and Anaer choline gr early 0.36.

Random excerpt: two records from the list
Screening Cc1ccccc1/C=C/C1=NCCN1 returned Anaer choline gr inactive and Anaer choline gr early 0.51.
Screening O=C(O)CN1C(=O)COc2ccccc21 returned Anaer choline gr inactive and Anaer choline gr early -0.16.

New compounds follow.
CCOC(=O)CC1=CC(SCC(=O)Nc2cc(C)[nH]n2)=Nc2ccccc2N1 was read as Anaer choline gr inactive and Anaer choline gr early -0.07.
`O=C(CCC(=O)N1Cc2cccn2-c2ccccc21)N1CCN(c2ccc(Cl)cc2)CC1` gave Anaer choline gr inactive and Anaer choline gr early -0.65.
Screening COc1cccc(NC(=O)c2ccnc(N3CCC(C(=O)NC4CCCC4)CC3)c2)c1 returned Anaer choline gr inactive and Anaer choline gr early 0.16.
For O=C(c1ccc2ccnc(N3CCN(c4ccc(Cl)cc4)CC3)c2c1)N1CCCC1 the results were Anaer choline gr inactive and Anaer choline gr early 0.91.
Screening Cc1ccc(S(=O)(=O)CCC(=O)N2CCCC2c2nc(-c3ccc(Cl)cc3)no2)cc1 (stereo not given) returned Anaer choline gr inactive and Anaer choline gr early 0.07.
`Cc1ccc(C2CC(=O)Nc3nc(N)[nH]c(=O)c32)cc1` (stereo not given) gave Anaer choline gr inactive and Anaer choline gr early -1.72.
For O=c1n(Cc2cccc(F)c2)nc2c(S(=O)(=O)N3CCCCCC3)cccn12 the results were Anaer choline gr inactive and Anaer choline gr early -0.21.
For Cc1ccccc1S(=O)(=O)N1CCC2(CC1)NCCN=C2NCc1ccccc1 the results were Anaer choline gr inactive and Anaer choline gr early -0.12.
Screening CC(C)c1ccc(NC(=O)CCCc2nc3cccnc3n2Cc2ccccc2)cc1 returned Anaer choline gr inactive and Anaer choline gr early 1.02.
For Cc1nc(-c2ccc(F)cc2)sc1CCNC(=O)c1ccccc1 the results were Anaer choline gr inactive and Anaer choline gr early -0.33.
`CCn1nnc2c(NCc3ccc4c(c3)OCO4)ncnc21` gave Anaer choline gr inactive and Anaer choline gr early -0.72.
For Cc1cc(C)n2nc(CN(C(=O)C(C)(C)C)c3ccccc3)nc2n1 the results were Anaer choline gr inactive and Anaer choline gr early -0.55.
CCOc1ccc(NS(=O)(=O)c2cc(C(=O)N3CCN(c4ccccc4F)CC3)n[nH]2)cc1 was read as Anaer choline gr inactive and Anaer choline gr early 0.6.
COC(=O)c1ccc(C2C3=C(CC(c4ccc(O)cc4)CC3=O)Nc3onc(C)c32)cc1 (stereo not given) was read as Anaer choline gr inactive and Anaer choline gr early -0.29.
CC(C)c1cc(-c2ccc(F)c3ccccc23)nc(N)n1 was read as Anaer choline gr inactive and Anaer choline gr early 0.61.
Screening Cc1nnc2ccc(NS(=O)(=O)c3ccc(Br)s3)nn12 returned Anaer choline gr inactive and Anaer choline gr early -0.71.
Screening N[C@@H]1CCCC[C@H]1N.O=C(O)C(=O)O.[Pt] returned Anaer choline gr inactive and Anaer choline gr early -1.47.
For COc1ccc(S(=O)(=O)N2CCC3(C2)C(=O)N(C)c2ccccc23)cc1OC (stereo not given) the results were Anaer choline gr inactive and Anaer choline gr early -2.23.
CC(C)NC(=O)CCCCn1c(=O)c2ccccc2n(CC(=O)NCc2ccc(Cl)cc2)c1=O was read as Anaer choline gr inactive and Anaer choline gr early 0.24.
Cc1cc(C2CCCN2C(=O)c2cc(C3CCCCC3)no2)no1 (stereo not given) was read as Anaer choline gr inactive and Anaer choline gr early -0.17.

Ordered by number of heavy atoms (ascending): part of the list above.
Screening Cc1nnc2ccc(NS(=O)(=O)c3ccc(Br)s3)nn12 returned Anaer choline gr inactive and Anaer choline gr early -0.71.
CC(C)c1cc(-c2ccc(F)c3ccccc23)nc(N)n1 was read as Anaer choline gr inactive and Anaer choline gr early 0.61.
`CCn1nnc2c(NCc3ccc4c(c3)OCO4)ncnc21` gave Anaer choline gr inactive and Anaer choline gr early -0.72.
For Cc1nc(-c2ccc(F)cc2)sc1CCNC(=O)c1ccccc1 the results were Anaer choline gr inactive and Anaer choline gr early -0.33.
For Cc1cc(C)n2nc(CN(C(=O)C(C)(C)C)c3ccccc3)nc2n1 the results were Anaer choline gr inactive and Anaer choline gr early -0.55.
For COc1ccc(S(=O)(=O)N2CCC3(C2)C(=O)N(C)c2ccccc23)cc1OC (stereo not given) the results were Anaer choline gr inactive and Anaer choline gr early -2.23.
For Cc1ccccc1S(=O)(=O)N1CCC2(CC1)NCCN=C2NCc1ccccc1 the results were Anaer choline gr inactive and Anaer choline gr early -0.12.
For O=C(c1ccc2ccnc(N3CCN(c4ccc(Cl)cc4)CC3)c2c1)N1CCCC1 the results were Anaer choline gr inactive and Anaer choline gr early 0.91.
Screening Cc1ccc(S(=O)(=O)CCC(=O)N2CCCC2c2nc(-c3ccc(Cl)cc3)no2)cc1 (stereo not given) returned Anaer choline gr inactive and Anaer choline gr early 0.07.
`O=C(CCC(=O)N1Cc2cccn2-c2ccccc21)N1CCN(c2ccc(Cl)cc2)CC1` gave Anaer choline gr inactive and Anaer choline gr early -0.65.
CCOc1ccc(NS(=O)(=O)c2cc(C(=O)N3CCN(c4ccccc4F)CC3)n[nH]2)cc1 was read as Anaer choline gr inactive and Anaer choline gr early 0.6.
CC(C)NC(=O)CCCCn1c(=O)c2ccccc2n(CC(=O)NCc2ccc(Cl)cc2)c1=O was read as Anaer choline gr inactive and Anaer choline gr early 0.24.

(cont.)
Screening O=C(CN1N=C(c2ccccc2)c2cc(Cl)ccc2S1(=O)=O)NC1CCCC1 returned Anaer choline gr inactive and Anaer choline gr early 0.4.
Screening Cc1nc2c(C(=O)NCCN3CCOCC3)cnn2c(C)c1Cc1ccccc1Cl returned Anaer choline gr inactive and Anaer choline gr early 0.36.
Screening CC1CC(=O)N(CC(=O)NC(C)(C)C)c2cc(S(=O)(=O)N3CCCCC3)ccc2S1 (stereo not given) returned Anaer choline gr inactive and Anaer choline gr early 0.9.
Screening COc1ccc(-c2cnn3c(C(F)(F)F)cc(-c4ccc(C)cc4)nc23)cc1OC returned Anaer choline gr inactive and Anaer choline gr early 0.37.
`O=C(CN1C(=O)C(C(=O)N2CCCC2)Sc2ccccc21)N1CCc2ccccc2C1` (stereo not given) gave Anaer choline gr inactive and Anaer choline gr early -0.54.
For COc1ccc(-c2cc3ncc(C(=O)c4cc(Cl)c(C)cc4O)cn3n2)cc1 the results were Anaer choline gr inactive and Anaer choline gr early 0.01.
For CC(C)NC(=O)CCn1c(=O)c2ccccc2n2c(=S)[nH]nc12 the results were Anaer choline gr inactive and Anaer choline gr early -1.14.
For COc1ccc(Nc2ncnc3sc(C)c(S(=O)(=O)N4CCCCC4)c23)cc1Cl the results were Anaer choline gr inactive and Anaer choline gr early 0.78.
For C=CCN1CC(c2nc3ccccc3n2CC(O)COc2ccccc2Cl)CC1=O (stereo not given) the results were Anaer choline gr inactive and Anaer choline gr early -1.63.
`Cc1cc(N2CCCCC2)n2nc(-c3ccccc3)c(C)c2n1` gave Anaer choline gr inactive and Anaer choline gr early -0.04.
Screening Cc1ccc2snc(C(=O)N3CCN(S(=O)(=O)c4cccc(F)c4)CC3)c2c1 returned Anaer choline gr inactive and Anaer choline gr early -0.9.
For Cc1nn(-c2ccc3nnc(C)n3n2)c2c1C(c1ccc(OCc3cccc(Cl)c3)cc1)CC(=O)N2 (stereo not given) the results were Anaer choline gr inactive and Anaer choline gr early 0.68.
COc1ccc(C(=O)N2CCc3c([nH]c4ccc(OC)cc34)C2c2ccc(F)cc2)cc1 (stereo not given) was read as Anaer choline gr inactive and Anaer choline gr early 0.67.
Screening CS(=O)(=O)Nc1ccc(C2=NN(C(=O)CCCC(=O)O)C(c3cccc(F)c3)C2)cc1 (stereo not given) returned Anaer choline gr inactive and Anaer choline gr early 0.29.
`CCn1c(=O)c(-c2noc(C(=O)NC3CCCCC3)n2)nn(-c2ccccc2)c1=O` gave Anaer choline gr inactive and Anaer choline gr early 0.11.
For COc1ccc(OCc2nc(CCN(C)S(=O)(=O)c3ccc(Br)cc3)no2)cc1 the results were Anaer choline gr inactive and Anaer choline gr early 0.45.
`CC(C)OCCCNC(=O)C(C)C1CCN(S(=O)(=O)c2cccs2)CC1` (stereo not given) gave Anaer choline gr inactive and Anaer choline gr early 0.3.
Screening CCc1cc(C2CCCN2C(=O)c2cc(C3CC3)on2)on1 (stereo not given) returned Anaer choline gr inactive and Anaer choline gr early 0.23.
`Clc1ccc(Cc2nc3nc4c(c(N5CCN(c6ccccn6)CC5)n3n2)CCC4)cc1` gave Anaer choline gr inactive and Anaer choline gr early 0.89.

Only part of the results is shown, so the mix of outcomes need not match the whole.
